KCNQ2 enhance: potentiators of rat KCNQ2 potassium channel; Potassium voltage-gated channel subfamily KQT member 2 (Rattus norvegicus), O88943; CHO-K1 KCNQ2, FluxOR thallium flux fluorescence; stronger effect = higher value; B-score at 10 µM; actives 0.54% (n = 310,000); AID 2239, 2010;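 active means fluorescence ratio B-score at least 3 SD of library B-scores, with initial fluorescence B-score within 3 SD, cut at about 5.3 in these data; same plate scores as AID 2156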;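 further: B-score of peak minus minimum over baseline fluorescence ratio after K+ and Tl+ stimulus; positive B-score means potentiation of KCNQ2 with more thallium influx and brighter signal; only the inactives scoring about 0 or higher are listed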
Target sequence (O88943 whole entry, looked up): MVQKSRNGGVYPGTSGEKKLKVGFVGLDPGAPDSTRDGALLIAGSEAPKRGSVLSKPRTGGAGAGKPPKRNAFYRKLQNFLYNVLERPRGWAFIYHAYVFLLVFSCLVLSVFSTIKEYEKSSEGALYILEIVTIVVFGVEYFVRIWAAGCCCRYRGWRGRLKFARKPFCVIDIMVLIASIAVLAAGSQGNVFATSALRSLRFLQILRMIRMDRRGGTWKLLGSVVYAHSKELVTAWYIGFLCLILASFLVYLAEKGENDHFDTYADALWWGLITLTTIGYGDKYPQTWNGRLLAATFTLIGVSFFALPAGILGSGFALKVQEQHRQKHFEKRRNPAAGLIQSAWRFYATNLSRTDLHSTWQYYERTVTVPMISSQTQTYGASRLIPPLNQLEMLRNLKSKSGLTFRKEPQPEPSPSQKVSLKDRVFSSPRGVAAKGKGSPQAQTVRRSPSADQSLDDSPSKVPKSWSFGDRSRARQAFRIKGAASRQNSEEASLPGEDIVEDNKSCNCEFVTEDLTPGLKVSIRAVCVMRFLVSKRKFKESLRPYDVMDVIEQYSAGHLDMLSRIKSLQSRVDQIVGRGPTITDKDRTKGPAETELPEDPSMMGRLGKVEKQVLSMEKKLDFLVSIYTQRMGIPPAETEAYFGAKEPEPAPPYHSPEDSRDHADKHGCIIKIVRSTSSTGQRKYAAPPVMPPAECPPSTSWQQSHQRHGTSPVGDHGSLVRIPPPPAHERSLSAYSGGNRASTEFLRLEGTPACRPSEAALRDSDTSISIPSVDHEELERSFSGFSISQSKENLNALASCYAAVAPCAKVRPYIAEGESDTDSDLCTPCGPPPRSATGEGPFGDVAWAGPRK
KCNQ2 enhance baseline: recorded beside KCNQ2 enhance, whose call it bears; B-score; compound at 10 µM; measured here: initial fluorescence intensity artifact check;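 brightness before thallium and not channel activity; 0 = typical well and far values either way flag optical interference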
* hit, by the source's call.

SMILES | KCNQ2 enhance | KCNQ2 enhance baseline
O=c1c2ccccc2ncn1CCOCCOc1cccc(Br)c1 | 1 | 0.12
Cc1ccc(C)c(SCC(=O)OC/C(O)=C(\C#N)c2nc3ccccc3[nH]2)c1 | 0.45 | 1.4
COc1cccc(CNC(=O)CN2C(=O)COc3ccc(S(=O)(=O)N4CCCCC4)cc32)c1 | 0.46 | -3.7
O=C(c1ccccc1[N+](=O)[O-])N1CC2C3C=CC(C3)C2C1 (configuration not stated) | 2.7 | 2.3
O=C(NNC(=O)C12CC3CC(CC(Cl)(C3)C1)C2)c1csc(N2CCOCC2)n1 | 1 | -0.48
Cc1ccc(S(=O)(=O)N2CCC(C(=O)NCCCn3ccnc3)CC2)cc1 | 1.2 | 1.6
Cc1cc([N+](=O)[O-])nn1CCCC(=O)Nc1cc(Oc2ccccc2)cc([N+](=O)[O-])c1 | 1.5 | -0.32
O=C(O)CCn1c(SCCc2ccccc2)nc2ccccc21 | 0.54 | -0.14
CN(C)/C=N/c1cc(=O)n(Cc2ccccc2)c(=O)n1C | 1.5 | 2.6
O=C(c1ccc(N2CCCC2=O)cc1)N1CCN(c2ccc(Cl)cc2)CC1 | 0.01 | 1.4
CC(=O)Nc1cccc(NC(=O)CSc2nccn2Cc2ccccc2)c1 | 1.8 | 1.3
Cc1ccc(NC(=O)c2c(C(=O)Nc3ccccc3)sc3nc(C)cc(=O)n23)cc1 | 1.2 | -0.74
Cn1c(=O)n(C)c2cc(NC(=O)c3ccc(F)cc3)c(Br)cc21 | 0.39 | -0.04
CN(C)CCCOc1cccc(Cl)c1 | 0.32 | 2.7
CN(C)CCN(C(=O)CN1C(=O)c2ccccc2C1=O)c1nc2cc3c(cc2s1)OCO3 | 2.9 | -0.46
O=C(/C=C/c1ccccc1)NCC(=O)N/N=C\c1cccnc1 | 0.21 | -1.2
COc1ccc(NC(=O)c2sccc2OS(=O)(=O)N(C)C)cc1 | 0.5 | 0.83
O=c1oc(-c2cccs2)nc2ccc(Br)cc12 | 1.2 | -1.2
Cc1ccc(CNC(=O)c2ccc3nc4[nH]c5ccccc5c4nc3c2)cc1 | 0.29 | -0.33
CC(C)Oc1c(Cl)cc(CNC(C)(C)CO)cc1Cl | 1.5 | -0.33
COc1cccc2[nH]c3c(=O)[nH]cnc3c12 | 0.41 | 1.1
c1ccc(C2=Nc3ccccc3OC2)cc1 | 0.38 | 1
Cc1ccccc1NC(=O)c1cc2c(C)nc3ccccc3c2o1 | 1.1 | -0.9
Cc1ccc(NS(=O)(=O)c2ccc(OCC(=O)NCc3cccnc3)cc2)cc1 | 0.63 | -0.77
Cc1ccc(S(=O)(=O)Nc2ccc3nc(C)sc3c2)cc1 | 0.83 | 1.3
(list continues)
SMILES | KCNQ2 enhance | KCNQ2 enhance baseline
Cn1c(CCN2CCN(c3ccccn3)CC2)nc2cc(NS(=O)(=O)c3ccccc3)ccc21 | 0.21 | 0.5
Cc1ccc(NC(=S)NCc2cccnc2)cc1 | 1.1 | -0.55
CN(CCCCOc1ccc(F)cc1)Cc1ccccc1 | 1 | 0.27
CCCNC(=O)COCc1cc(-c2ccc3c(c2)OCO3)on1 | 0.07 | -1.2
CCOC(=O)c1cc(NC(=O)N2CCCc3ccccc32)c(C)nc1C | 0.17 | -0.1
CCC1(C)Cc2c(C#N)c(N)n(N)c(=S)c2CO1 (configuration not stated) | 1.9 | -1.6
COCCNC(=O)CCC1CCN(Cc2ccc(-c3ccccc3)cc2)CC1 | 0.63 | 0.64
S=C(NCc1ccncc1)Nc1cccc(Cl)c1 | 2 | 0.22
C/C(=N\Nc1nc(C)c(C)s1)c1ccc([N+](=O)[O-])cc1 | 5.4* | -0.07*
CC(C)(C)OC(=O)N1Cc2ccccc2C[C@H]1C(=O)NCC(=O)NC1CCCC1 | 0.81 | 0.22
COCCCn1c2nc3ccccc3nc2c2c(=O)n(Cc3cccs3)cnc21 | 1.2 | -0.3
O=C(NC1CCCCC1)c1ccc2snnc2c1 | 0.93 | 0.15
CCN(C(=O)c1cc2c(=O)[nH]c3ccc(C)cc3c2s1)c1cccc(C)c1 | 0.35 | -2.5
CCc1cccc(NC(=O)c2ccc(NS(=O)(=O)c3c(C)noc3C)cc2)c1 | 0.22 | -1
CC(C)c1ccc(C2c3[nH]c4ccccc4c3C[C@H]3C(=O)N(c4ccccc4C(=O)N4CCC[C@@H]4C(=O)O)C(=O)N23)cc1 (some centres not stated) | 0.03 | 0.21
CC(C)c1nc2cc(C(=O)N3CCN(c4cnccn4)CC3)ccc2o1 | 0.92 | -0.78
CCOC(=O)N1CCN(S(=O)(=O)c2ccc(OCC(=O)OC)c(Cl)c2)CC1 | 0.12 | 1.5
COc1ccc(CN2CCN(CCc3ccccc3)C(CCO)C2)c(O)c1 (configuration not stated) | 0.2 | 1.8
COc1ccc(NC(=O)NNC(=O)CCc2ccc(O)c(O)c2)cc1OC | 0.79 | -0.46
O=C(Oc1cccc(Nc2ncnc3ccccc23)c1)c1cccnc1 | 1.3 | -0.02
O=C(NCC1CCCO1)c1ccc([N+](=O)[O-])s1 (configuration not stated) | 0.67 | 2.2
CN(C)N1C(N)=C(C#N)C(c2cccs2)C2=C1CCCC2=O (configuration not stated) | 0.02 | 0.45
COc1ccc(N2CCN(c3ccc(C(=O)O)cc3[N+](=O)[O-])CC2)cc1 | 0.64 | -0.33
COc1ccc2c(c1)c(C(=O)OCCN(C)C)c(C)n2C | 0.73 | 1.5
N#CCSc1nnc2sc3ccccc3n12 | 0.89 | -1.2

The closing 4 compounds of the section above lead into the next:
SMILES | KCNQ2 enhance | KCNQ2 enhance baseline
CN(C)N1C(N)=C(C#N)C(c2cccs2)C2=C1CCCC2=O (configuration not stated) | 0.02 | 0.45
COc1ccc(N2CCN(c3ccc(C(=O)O)cc3[N+](=O)[O-])CC2)cc1 | 0.64 | -0.33
COc1ccc2c(c1)c(C(=O)OCCN(C)C)c(C)n2C | 0.73 | 1.5
N#CCSc1nnc2sc3ccccc3n12 | 0.89 | -1.2
O=C(Cc1ccc(F)cc1)NC1CCS(=O)(=O)C1 (configuration not stated) | 0.4 | -1.6
CCOC(=O)c1sc(NC(=S)NC(=O)C2CCCC2)cc1C | 0.59 | -0.15
CCOC(=O)C1C(=O)NC(N2CCCCC2)=NC1c1ccco1 (configuration not stated) | 0.08 | -0.83
CCOC(=O)c1c(CSc2ccccc2)oc2ccc(O)cc12 | 0.04 | 0.41
COc1cccc2c1C(=O)C[C@]1(CCCC[C@@H]1C)O2 | 0.16 | 0.33
Cc1cc(=O)n2[nH]c(NCc3ccccc3F)nc2n1 | 0.48 | 0.86
COCCCNC(=O)CC(NS(=O)(=O)c1ccc(C)cc1)c1ccc(OC)cc1 (configuration not stated) | 0.05 | -1.6
COc1ccc(-c2nc3nc(C)cc(C)n3n2)cc1 | 1.5 | 0.77
CCOc1ccc(-n2ccnc(SCC(=O)Nc3ccc(OC)cc3OC)c2=O)cc1 | 0.54 | 0.26
COc1ccc(CCNc2ccc(S(=O)(=O)N3CCCC3)cc2[N+](=O)[O-])cc1 | 0.06 | -2.1
O=C(Cc1cccs1)N/N=C\c1ccc(O)cc1 | 0.68 | 0.12
COCCCn1c2nc3ccccc3nc2c2c(=O)n(-c3ccccc3OC)cnc21 | 0.34 | -1.9
CCCCc1n(CC(=O)c2ccc(Cl)cc2)c2ccccc2[n+]1C | 1.2 | -0.72
Oc1ccc(C23CC4CC(CC(C4)C2)C3)cc1O | 2.4 | 1
CCN(CC)S(=O)(=O)c1ccc(NC(=O)c2ccccc2N(C)S(C)(=O)=O)cc1 | 1.7 | -0.37
CCNc1nc(NCC)nc(OCCNS(=O)(=O)c2cc(C)ccc2C)n1 | 0.67 | 0.07
O=C(CN1C(=O)CCSc2ccccc21)Nc1ccccc1 | 1.1 | -0.04
Cc1ccc(-c2nn(-c3ccccc3)cc2C(=O)NN2CCN(C)CC2)cc1 | 0.36 | -1.8
CCCCn1c(SCC(=O)N2CC(=O)Nc3ccccc32)nnc1-c1ccoc1C | 1.5 | -0.34
Cc1ccc(S(=O)(=O)NC(=O)c2ccccc2C)cc1 | 1.2 | 0.06
CCCn1nc(NS(C)(=O)=O)c2cc3cccc(C)c3nc21 | 1.1 | 0.07
CC(=O)N/C(N)=N/c1nc(=O)c2ccccc2s1 | 0.6 | -0.75
COc1ccc(-n2c(Cn3nnc4ccccc43)n[nH]c2=S)cc1 | 0.43 | -0.46
COc1ccc(/C(O)=C2/C(=O)C(=O)N(CCN(C)C)C2c2cccnc2)cc1OC (configuration not stated) | 0.54 | -1.5
COc1cccc(C(CC(=O)NCCN2CCOCC2)NS(=O)(=O)c2ccc(C)cc2)c1OC (configuration not stated) | 3.1 | 1.3
The results go on.
SMILES | KCNQ2 enhance | KCNQ2 enhance baseline
O=C(C1CC(c2ccc(F)cc2)=NO1)N1CCCc2ccccc21 (configuration not stated) | 0.24 | 0.08
CC(=O)c1nnn(-c2ccc(Cl)cc2C#N)c1C | 1.6 | 0.62
COc1cc(Br)c(C(C)NC(=O)c2ccccc2)cc1OC (configuration not stated) | 1.2 | 1.4
COCCN(CC(=O)NC1CCCCC1)C(=O)c1csnn1 | 0.57 | -0.01
COc1ccc(CCNC(=O)CNC(=O)c2nn(-c3ccc(OC)c(OC)c3)c(=O)c3ccccc23)cc1OC | 0.03 | -1.6
COCCn1c(-c2ccsc2)nc2c1c(=O)[nH]c(=O)n2CC(C)C | 0.45 | -0.67
CC1CCCCC1NC(=O)COC(=O)COc1ccc(Cl)cc1 (configuration not stated) | 1.4 | 0.22
O=C(CS(=O)(=O)c1ccccc1)Nc1ccc(Cl)cn1 | 0.01 | -0.77
CC(C)(C)C(=O)O/N=C(\N)c1ccc(Oc2cc(Cl)cc(Cl)c2)c([N+](=O)[O-])c1 | 1.1 | -0.07
CNC(=S)N(Cc1ccco1)Cc1cc2cc3c(cc2[nH]c1=O)OCCO3 | 0.06 | -0.85
COc1ccc(OCC(=O)N2CCCC2=O)c([N+](=O)[O-])c1 | 0.03 | 0.03
C=C1CSc2nc(=O)c3c4c(sc3n21)CCCC4 | 0.69 | -0.13
NC(=O)c1ccc(NC(=O)COC(=O)C2(c3ccccc3F)CCCC2)cc1 | 1.9 | -1.8
CCCCn1c(N)c(N(CC(C)C)C(=O)c2ccc(OCc3c(C)noc3C)cc2)c(=O)[nH]c1=O | 0.06 | -0.7
CCC(=O)Nc1c(S(=O)(=O)c2ccccc2)c2nc3ccccc3nc2n1Cc1ccccc1 | 0.55 | -0.18
Cc1c(/C=N/NC(=O)COc2ccccc2[N+](=O)[O-])c2ccccc2n1C | 0.22 | -3.5
COc1cccc(-c2nc(S(=O)(=O)c3ccccc3)c(N3CCOCC3)o2)c1 | 0.25 | 0.31
Cc1nn(-c2ccc(Cl)nn2)c(=O)c2ccccc12 | 0.01 | 5.9
CCOC(=O)C1CCN(C(=O)C2CCN(S(=O)(=O)c3c(C)noc3C)CC2)CC1 | 0.32 | -1.9
NNC(=O)C(=O)Nc1ccc(O)cc1 | 3.5 | -1.2
CC(=O)Nc1ccc(N/C=C2/CCCC2=O)cc1 | 0.33 | 1.2
Cc1nn(CC2CC2)c(=O)n1-c1ccc(F)cc1 | 2.9 | 0.77
O=C(NCCN1CCOCC1)c1cccnc1SCc1ccccc1Cl | 2.6 | -0.43
Cc1cc(C(=O)N/N=C/c2cc(Cl)cc([N+](=O)[O-])c2O)n[nH]1 | 0.02 | -0.08
COc1cc2c(cc1OC)-c1nnc(-c3cccs3)n1C1(CCCC1)C2 | 1.5 | 1.1
Additional results
SMILES | KCNQ2 enhance | KCNQ2 enhance baseline
Cc1ccc(/C(O)=C/c2nc3cc(C)ccc3oc2=O)cc1 | 0.33 | 0.28
Cc1occc1C(=O)Nc1cccc(C(=O)NCc2ccccc2)c1 | 2.2 | -1
Cn1c(N)c(C(=O)COC(=O)c2cccnc2Cl)c(=O)n(C)c1=O | 0.09 | -0.89
CCOc1ccc(C(=O)Nc2ccc(S(=O)(=O)Nc3nccc(C)n3)cc2)cc1OCC | 0.04 | -0.37
CCC(=O)Nc1nc2n(n1)C(c1ccc(OC)cc1)C=C(c1ccccc1)N2 (configuration not stated) | 0.02 | 1.9
Cc1c(S(=O)(=O)Nc2ccc3c(c2)OCCO3)c(=O)n(C)c(=O)n1C | 1.1 | 0.08
O=C(Cn1nnc(-c2ccc(S(=O)(=O)N3CCCC3)cc2)n1)Nc1ccccc1-n1cccc1 | 0.13 | 2
CN1C(=O)N(C)C2(c3ccccc3)NC(=O)NC12c1ccccc1 (configuration not stated) | 0.1 | -1.5
O=S(=O)(c1ccccc1)N(CC1CO1)c1ccccc1 (configuration not stated) | 0.19 | 0.68
Cn1cc([N+](=O)[O-])c(C(=O)Nc2nc(-c3ccc(Cl)cc3)cs2)n1 | 1.1 | -1.6
Cc1cc(OCC(=O)NCC2CCC(C(=O)O)CC2)c2c(C)cc(=O)oc2c1 (configuration not stated) | 1.3 | 0.34
CN1CCCN(S(=O)(=O)c2ccccc2)CC1 | 0.04 | 0.1
CCOc1ccc2c(c1)sc1nc(C(=O)OC)cc(=O)n12 | 0.53 | 0.17
CC(C)(C)c1ccc(C(=O)Nc2ccc(Oc3cccnc3)nc2)cc1 | 2.1 | -0.28

2 compounds picked at random from the list so far:
SMILES | KCNQ2 enhance | KCNQ2 enhance baseline
CCOc1ccc(C(=O)Nc2ccc(S(=O)(=O)Nc3nccc(C)n3)cc2)cc1OCC | 0.04 | -0.37
O=S(=O)(c1ccccc1)N(CC1CO1)c1ccccc1 (configuration not stated) | 0.19 | 0.68

Record cards, from the list above. Order of screens: KCNQ2 enhance | KCNQ2 enhance baseline
CN(C)CCCOc1cccc(Cl)c1 as listed: 0.32 | 2.7
O=C(c1ccccc1[N+](=O)[O-])N1CC2C3C=CC(C3)C2C1 (configuration not stated) as listed: 2.7 | 2.3
CC1CCCCC1NC(=O)COC(=O)COc1ccc(Cl)cc1 (configuration not stated) as listed: 1.4 | 0.22
COc1ccc(NC(=O)c2sccc2OS(=O)(=O)N(C)C)cc1 as listed: 0.5 | 0.83

Screens deposited in PubChem BioAssay by Johns Hopkins Ion Channel Center.

Only part of the results is shown; rates above refer to the full screens.
